Compound activity deposited in PubChem BioAssay by several laboratories.
VCAM-1 down imaging – suppression of endothelial VCAM-1 upregulation – imaging, high-content imaging, pooled HUVEC, TNFa stimulus (AID 456); HUVEC TNFa-induced VCAM-1 surface expression, immunofluorescence imaging; numbers were filed only for top-ranked candidate wells; 0.2% of 10,000 active; inhibition, % at 5 µM; hits with a dose series show IC50 in µM;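 active means top tenth filtered wells with inhibition above zero that passed visual or statistical confirmation; inactive means the rest, including hits rejected on review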;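 further: 0% = stimulated vehicle wells and 100% = unstimulated cells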
VCAM-1 augmentation – enhancers of VCAM-1 display on endothelial cells, imaging, high-content imaging, pooled HUVEC, TNFa stimulus (AID 457) | Pooled HUVEC, TNFa-induced VCAM-1 immunofluorescence imaging; hits of this screen are not shown here | calls only | 0.2% of 10,000 active;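 active means a top-ranked rise in VCAM-1 staining upheld on image or statistical review; inactive means the rest, including candidates rejected on review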;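 further: compounds tested at 5 µM in the well; cells exposed to compound for 24 hours before fixing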
VCAM-1 inhibition – inhibitors of TNFa-induced VCAM-1 surface display, cell-based, plate reader, pooled HUVEC, TNFa stimulus (AID 454); inhibition, % at 5 µM; 0.2% of 10,000 active; HUVEC TNFa-induced VCAM-1 surface immunofluorescence, plate reader; numbers were filed only for top-ranked candidate wells;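 active means compound among top-ranked inhibitors of TNF-induced VCAM-1 adhesion protein staining, with the hit upheld by image or statistical review; inactive means the rest, including hits rejected on review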;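 further: 0% = TNFa with vehicle and 100% = cells without TNFa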
FPR binder – human FPR ligand, with FPRL1 counter-screen | P21462 | FPR-expressing cells, fluorescent ligand binding, flow cytometry | inhibition, %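 (tested at 6.7 µM)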 | 0.74% of 24,000 active;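 further: 0% = buffer wells and 100% = receptor blocker peptide wells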
Target sequence (P21462 whole entry, looked up): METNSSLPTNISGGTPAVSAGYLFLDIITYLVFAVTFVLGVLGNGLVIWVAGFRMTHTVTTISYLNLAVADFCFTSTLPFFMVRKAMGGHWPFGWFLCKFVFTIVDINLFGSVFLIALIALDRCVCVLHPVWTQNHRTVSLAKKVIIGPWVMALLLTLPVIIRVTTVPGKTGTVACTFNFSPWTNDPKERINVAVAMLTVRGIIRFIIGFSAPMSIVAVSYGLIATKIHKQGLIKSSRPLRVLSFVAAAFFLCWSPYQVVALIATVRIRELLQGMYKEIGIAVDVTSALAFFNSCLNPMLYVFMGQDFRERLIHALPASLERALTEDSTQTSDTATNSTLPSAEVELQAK
FPRL1 ligand – ligands of human FPRL1, also counter-screen for FPR ligands | FPRL1-expressing cells, fluorescent ligand binding inhibition, flow cytometry | inhibition, %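 (tested at 6.7 µM)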 | 0.3% of 24,000 active | AID 441;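 further: 0% = buffer alone and 100% = receptor blocker peptide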
Target sequence (P25090 whole entry, looked up): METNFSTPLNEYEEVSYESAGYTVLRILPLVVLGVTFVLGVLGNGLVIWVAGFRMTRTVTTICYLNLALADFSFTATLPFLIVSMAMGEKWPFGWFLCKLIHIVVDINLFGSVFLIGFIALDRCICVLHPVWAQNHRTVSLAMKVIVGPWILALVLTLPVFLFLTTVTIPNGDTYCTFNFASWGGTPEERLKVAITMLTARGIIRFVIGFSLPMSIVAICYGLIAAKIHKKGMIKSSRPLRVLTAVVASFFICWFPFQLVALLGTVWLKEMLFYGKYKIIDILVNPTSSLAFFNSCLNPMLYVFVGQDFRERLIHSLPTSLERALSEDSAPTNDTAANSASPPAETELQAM
Active calls of the source: *; i = inactive; . = no result given.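 How the source made its calls, unless noted: active means mean above 30%; inconclusive means self-fluorescent; inactive means the rest.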 This is a subset (hit frequency here may not be typical).

Each structure is followed by: VCAM-1 down imaging	VCAM-1 augmentation	VCAM-1 inhibition	FPR binder	FPRL1 ligand
- COc1ccccc1-n1c(SCC(N)=O)nnc1-c1ccccc1
→ i	i	i	2	0
- COC(=O)C(C)n1cnc2c(cnn2-c2ccc(Cl)cc2)c1=O (centres undefined)
→ .	.	.	22	15
- COc1ccccc1-c1cn[nH]c(=S)n1
→ i	i	i	-4	2
- Cc1ccc(CS(=O)(=O)Cc2ccc(C(=O)NCc3ccccn3)o2)cc1
→ i	i	i	8	1
- O=C(c1cc(-c2ccc(Cl)c(Cl)c2)on1)N1CCCCC1
→ .	.	.	-1	1
- COC(=O)n1c(SC)nc2ccccc21
→ .	.	.	2	2
- CN1CCN(CCCNC(=O)C2CC(=O)N(C3CCCCC3)C2)CC1 (centres undefined)
→ i	i	i	4	2
- COc1ccc(S(=O)(=O)Cc2ccc(C(=O)N3CCCC3)o2)cc1
→ .	.	.	1	-1
- CCn1c(=O)cc(SCC(=O)NCc2ccco2)c2ccccc21
→ .	.	.	-1	-2
- NC(=O)C1(N2CCCCC2)CCN(C(=O)c2cccn3c(=O)c4cc(Cl)ccc4nc23)CC1
→ .	.	.	7	3
- COc1ccc(OC)c(CN2C(=O)CCC2(C)C(=O)NC2CCCCCC2)c1 (centres undefined)
→ .	.	.	0	2
- CCOC(=O)c1sc(C)c2c1NC(C)(c1cccs1)NC2=O (centres undefined)
→ i	i	i	2	8
- Cc1nn(Cc2ccccc2Cl)c(C)c1NC(=O)c1cc(-c2ccc(F)cc2)on1
→ .	.	.	0	4
- CCOC(=O)C1=C(C)NC(C)=C(C(=O)OCC)C1C(=O)OC1CCOC1=O (centres undefined)
→ i	i	i	9	-4
- CCOC(=O)C(C)(C)Sc1nc2c(cnn2-c2ccc(Cl)cc2)c(=O)[nH]1
→ i	i	i	1	-6
- CCOC(=O)c1c(C)oc2cc(Br)c(O)c(Br)c12
→ .	.	.	-1	-2
- Cc1ccc(CCNC(=O)C2CCC(=O)N2C(C)C)cc1 (centres undefined)
→ .	.	.	-7	1
- Cc1oc(-c2cccc(Cl)c2)[n+]([O-])c1C
→ .	.	.	-1	-3
- CCSc1nc2c(c(=O)[nH]1)C(c1cccnc1)C(C(=O)OC(C)C)=C(C)N2 (centres undefined)
→ i	i	i	7	6
- Cc1cc2cc(CCNC(=O)CC(C)C)c(=O)[nH]c2cc1C
→ i	i	i	-3	8
- CCn1c(C(C)NC(=O)c2ccc(OC)c(OC)c2)nc2ccccc21 (centres undefined)
→ .	.	.	3	0
- COC(=O)CCn1nnc(-c2cccs2)n1
→ i	i	i	7	5
- CCOc1cc(C(=O)Nc2ccon2)cc(OCC)c1OCC
→ i	i	i	3	1
- COc1ccc(NS(=O)(=O)c2ccc(N)cc2)nn1
→ i	i	i	7	2
- O=C(CCN1C(=O)C2C3C=CC(C3)C2C1=O)Nc1ccc(F)cc1 (centres undefined)
→ .	.	.	-1	4
- COCc1cc(C)nc(SCC(=O)Nc2cccc(C)c2)c1C#N
→ .	.	.	-9	18
- Cc1cc(N2CCCc3ccccc32)n2ncnc2n1
→ .	.	.	-3	0
- O=C(O)CCCC(=O)N1CCc2cc(S(=O)(=O)N3CCc4ccccc43)ccc21
→ .	.	.	4	2
- Cc1noc(/C=C/N(C)C)c1S(=O)(=O)N1CCCC(C(=O)NCc2ccccc2Cl)C1 (centres undefined)
→ .	.	.	0	3
- Cc1cccc(CSc2nnc(Cn3c(=O)sc4ccccc43)n2C)c1
→ .	.	.	-4	10
- CCOC(=O)N1CCN(C(=O)C2CC(=O)N(Cc3ccc(OC)cc3)C2)CC1 (centres undefined)
→ i	i	i	14	3
- Cc1nc2c(C(=O)O)cnn2c(C)c1Cc1ccccc1F
→ i	i	i	-3	-5
- O=S(=O)(Nc1ccc2c(c1)OCCO2)c1cccc2cccnc12
→ .	.	.	1	-4
- CCn1cc(C(=O)N2CCOCC2)c(=O)c2cc(S(=O)(=O)N(C)C3CCCCC3)ccc21
→ i	i	i	-6	-1
- CCN(CCCNC(=O)C1CCN(S(=O)(=O)N2CCC3(CC2)OCCO3)CC1)c1ccccc1
→ .	.	.	-4	-8
- CC(=O)N1CCc2cc(S(=O)(=O)CCC(=O)Nc3ccc4c(c3)OCCO4)ccc21
→ .	.	.	0	-4
- COc1ccc(CN2C(=O)c3cccnc3C2Nc2cc(Cl)ccc2OC)cc1 (centres undefined)
→ i	i	i	-5	4
- O=C(c1ccccc1)n1nc(-c2ccccc2)nc1NCc1ccco1
→ .	.	.	2	13
- CCn1cc(C(=O)N2CCc3ccccc32)c(=O)c2cc(S(=O)(=O)N3CCOCC3)ccc21
→ .	.	.	1	3
- COCCNC(=O)CN(C)S(=O)(=O)c1ccc2c(c1)OCCO2
→ i	i	i	-4	0
- CC(C)Cc1cc(C(=O)NCc2ccco2)no1
→ .	.	.	-1	0
- O=C(OCc1cc2ccccc2[nH]c1=O)c1ccco1
→ i	i	i	-3	10
- Cc1ccccc1-c1ccc(C=Nc2c(C)n(C)n(-c3ccccc3)c2=O)o1
→ .	.	.	-1	1
- COC(=O)c1ccc(NC(=O)CN2CCCC2)cc1
→ i	i	i	3	0
- O=C(CSc1ncnc2c1cnn2-c1ccccc1)Nc1ccccc1
→ i	i	i	9	-4
- O=C(CSc1ncnc2sc3c(c12)CCCCC3)NCc1ccco1
→ i	i	i	4	0
- Cc1ccc(C2CCN(C(=O)Nc3ccccc3)C2)cc1 (centres undefined)
→ .	.	.	14	14
- COc1ccc(CN(CC(=O)NCC2CCCO2)C(=O)CNS(=O)(=O)c2ccc(C)cc2)cc1 (centres undefined)
→ i	i	i	11	-2
- O=C(CCSc1ccccc1)N1CCOCC1
→ i	i	i	4	-2
- c1ccc(-c2cc3c(nn2)CCc2nonc2-3)cc1
→ i	i	i	-10	1
- O/N=C1\CC/C(=N\O)c2nn(-c3ccccc3Cl)nc21
→ .	.	.	-2	-1
- O=C(CN1C(=O)CSc2ccccc21)NCCC1=CCCCC1
→ .	.	.	4	0
- N#CCc1ccc(NC(=O)Nc2cccc(Cl)c2)cc1
→ i	i	i	-2	-3
- CN1CCN(C2=Nc3ccccc3Oc3ccc(Cl)cc32)CC1
→ i	i	i	2	-8
- Cc1noc(C)c1S(=O)(=O)N(CC(=O)N1CCc2ccccc21)c1ccc(C(C)C)cc1
→ .	.	.	-2	-7
- CC(=O)Nc1ccc(Cl)c(C(N)=O)c1
→ i	i	i	-3	2
- CCOC(=O)c1ccc(CNC(=O)c2cc3cccc(OC)c3oc2=O)o1
→ .	.	.	6	1
- CS(=O)(=O)N1CCCC(C(=O)NCc2ccco2)C1 (centres undefined)
→ .	.	.	0	1
- Cc1ccccc1S(=O)(=O)Cc1ccc(C(=O)N2CC(C)CC(C)C2)o1 (centres undefined)
→ .	.	.	5	6
- CCc1ccc(C(=O)NC2CCCCC2)s1
→ i	i	i	2	3

(list continues)
Each structure is followed by: VCAM-1 down imaging	VCAM-1 augmentation	VCAM-1 inhibition	FPR binder	FPRL1 ligand
- Cn1c(=N)c(S(=O)(=O)c2ccccc2)cc2c(=O)n3ccccc3nc21
→ i	i	i	0	2
- CCCOc1cccc(C(=O)O)c1
→ .	.	.	1	-6
- COC(=O)c1onc(C(=O)c2ccccc2)c1C(=O)OC
→ i	i	i	-4	-1
- CC12CCC(C(=O)N3CCN(C(=O)C45CCC(C)(C(=O)O4)C5(C)C)CC3)(OC1=O)C2(C)C
→ i	i	i	-6	0
- c1ccc(-c2nc(N3CCN(c4ccccc4)CC3)nc(-n3ccnc3)n2)cc1
→ .	.	.	5	-3
- O=C(CN1C(=O)COc2ccccc21)NCCC1=CCCCC1
→ .	.	.	4	16
- COC(=O)c1cnn2c(C(F)(F)F)cc(-c3ccco3)nc12
→ i	i	i	0	-1
- O=c1[nH]c(=O)n([C@H]2C[C@H](O)[C@@H](CO)O2)cc1F
→ i	i	i	0	-4
- CC1CCN(c2nc(-c3ccco3)c3c(c2C#N)CC(C)(C)OC3)CC1
→ .	.	.	-10	-6
- CC(C)n1ncc(C(N)=O)c1N
→ .	.	.	-3	1
- O=C(C1CC(c2ccc(F)cc2)=NO1)N1CCc2ccccc2C1 (centres undefined)
→ .	.	.	2	-10
- CCOc1ccccc1-n1c(SCC(N)=O)nnc1-c1cccnc1
→ .	.	.	4	0
- N#Cc1c(C(F)(F)F)cc(C2CC2)[nH]c1=O
→ .	.	.	-1	7
- CCOc1ccc(C(=O)Nc2cc(C)on2)cc1OCC
→ i	i	i	14	1
- COc1ccccc1C1/C(=C(/O)c2cnn(-c3ccccc3)c2C)C(=O)C(=O)N1CCN(C)C (centres undefined)
→ .	.	.	4	4
- Cn1cccc1C1(C(F)(F)F)NCCNC1=O (centres undefined)
→ .	.	.	2	-2
- O=C(O)c1ccccc1NCc1ccncc1
→ .	.	.	14	3
- O=C1Nc2ccccc2OC1CC(=O)N1CCN(c2cccc(C(F)(F)F)c2)CC1 (centres undefined)
→ .	.	.	6	-5
- COc1cccc2c1OC1(C)CC2/C(=C(\C)O)C(=O)N1 (centres undefined)
→ .	.	.	-1	0
- CC(C)(C)n1ncc2c(=O)n(CC(=O)c3ccccc3)cnc21
→ i	i	i	2	3

In the list so far, these contain two or more sulfur atoms:
Each structure is followed by: VCAM-1 down imaging	VCAM-1 augmentation	VCAM-1 inhibition	FPR binder	FPRL1 ligand
- CCOC(=O)c1sc(C)c2c1NC(C)(c1cccs1)NC2=O (centres undefined)
→ i	i	i	2	8
- Cc1cccc(CSc2nnc(Cn3c(=O)sc4ccccc43)n2C)c1
→ .	.	.	-4	10
- O=C(CSc1ncnc2sc3c(c12)CCCCC3)NCc1ccco1
→ i	i	i	4	0

Next results
Each structure is followed by: VCAM-1 down imaging	VCAM-1 augmentation	VCAM-1 inhibition	FPR binder	FPRL1 ligand
- CCS(=O)(=O)NCc1csc(C)n1
→ .	.	.	-3	-7
- C[N+]1(CCN2C(=O)C3CC=C(Cl)CC3C2=O)CCOCC1 (centres undefined)
→ .	.	.	-9	9
- O=C(NC1CCCc2ccccc21)C1CCN(c2c(N3CCCC3)c(=O)c2=O)CC1 (centres undefined)
→ .	.	.	-8	-4
- COc1cccc(NC(=O)CN2C(=O)C3(OCCCO3)c3ccccc32)c1
→ .	.	.	-2	-9
- COCCNC(=O)c1ccc2c(c1)nc(C)n2-c1cc(OC)c(OC)c(OC)c1
→ .	.	.	-7	-2
- C=CCn1c(C(C)NC(=O)C(C)(C)C)nc2ccccc21 (centres undefined)
→ .	.	.	1	-1
- CCOc1ccccc1CNS(=O)(=O)c1ccc2[nH]c(=O)sc2c1
→ .	.	.	8	3
- CCC(C)NC(=O)CC1Oc2ccc(C)cc2NC1=O (centres undefined)
→ i	i	i	-7	11
- COc1ccc(C2N(c3ccc(Cl)cc3)C(=O)C3CCCN32)cc1 (centres undefined)
→ .	.	.	-7	1
- O=C(C1CC1)N1CCN=C1SCc1ccccc1
→ .	.	.	1	7
- COC(=O)CSc1nnc(CNC(=O)Cc2ccccc2)n1C
→ .	.	.	3	2
- Cc1ccc2c(c1)nnn2C1CCN(C(=O)NC23CC4CC(CC(C4)C2)C3)CC1
→ i	i	i	-7	0
- CC1CCc2c(sc(NC(=O)c3noc4c3CCCC4)c2C(N)=O)C1 (centres undefined)
→ .	.	.	-2	-6
- CCOC(=O)N1CCC(NC(=O)Cn2ncc3ccccc32)CC1
→ .	.	.	-3	2
- COC(=O)COc1ccc(S(=O)(=O)NCCC2=CCCCC2)cc1
→ i	i	i	-12	-8
- CCC(Sc1nc2n[nH]c(C)c2c(=N)n1-c1cccc(Cl)c1)C(=O)NCCOC (centres undefined)
→ .	.	.	1	4
- O=C(CCCn1c(SCC(=O)NC2CCCCC2)nc2ccccc2c1=O)NCC1CCCO1 (centres undefined)
→ .	.	.	2	-2
- COC(=O)c1c(C)oc2ccc(NS(=O)(=O)c3cccs3)cc12
→ i	i	i	3	-2
- CSc1cccc(NS(=O)(=O)c2cccc3nsnc23)c1
→ .	.	.	7	2
- Cc1ccc(C2=NCCNC2=O)c(C)c1
→ .	.	.	-5	-3
- Cc1ccccc1-n1c(=O)cc(N2CC(C)OC(C)C2)[nH]c1=O (centres undefined)
→ .	.	.	-5	-1
- CCC(Sc1nc2ccccc2c(=O)n1CC1CCCO1)C(=O)NCc1cccnc1 (centres undefined)
→ .	.	.	1	2
- COc1ccc(C)cc1NC(=O)CN1CCN(S(=O)(=O)c2ccc(F)cc2)CC1
→ .	.	.	-1	-3
- COC(=O)c1sc(S(=O)(=O)Nc2ccc3cn[nH]c3c2)c(C(=O)OC)c1C
→ i	i	i	2	2
- CC(C)N(C)C1CCN(C(=O)Nc2ccc(Cl)c(Cl)c2)CC1
→ .	.	.	-1	-2
- COc1ccc(C(c2sc3nc(C)nn3c2O)N2CCCCC2)cc1 (centres undefined)
→ i	i	i	12	2
